Compound activity deposited in PubChem by Southern Research Institute.
Mtb growth – Mycobacterium tuberculosis H37Rv growth inhibition, cell based, confirmatory dose response (AID 1949); one-dose inhibition, % at 10 µg/mL; IC50 in µg/mL for titrated hits; 100,000 compounds, 1.6% hits; most inactive calls were filed without a number and no value below 0 was filed;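 active = confirmed in a dose series; inconclusive = about 50% or more but not retested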;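 note: bacteria grown 7 days with compound before Alamar blue readout; 0% = untreated bacteria and 100% = reference antibiotic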
* hit, by the source's call; i = inactive; u = inconclusive. Some of the compounds tested. The share of hits here may be higher or lower than overall.

mol | Mtb growth
O=C(NCCSCc1ccco1)c1ccc(CN2CCOCC2)cc1 | i
CC(=O)c1cccc(NC(=S)Nc2ccc(S(=O)(=O)N3CCOCC3)cc2)c1 | i
O=C(CSc1ncnc2scc(-c3ccccc3)c12)NC1CCCCC1 | 7.0%
O=C(CN(c1ccc(F)cc1)S(=O)(=O)c1ccc2c(c1)OCCO2)Nc1ccc(S(=O)(=O)N2CCCC2)cc1 | i
O=C(NNC(=S)Nc1ccccc1)c1cccnc1 | i
Cc1ccccc1C(=O)N1CCN(c2ccc(NC(=O)COc3ccc(C(C)C)cc3)cc2)CC1 | 6.1%
Cc1cccc(C(=O)NC(c2nnc(SCC(=O)Nc3cccc(C)c3C)n2C)C(C)C)c1 (stereo not given) | i
N#Cc1cccc(NC(=S)NC(=O)c2ccccc2Br)c1 | i
O=C1c2oc3ccccc3c(=O)c2C(c2cccc([N+](=O)[O-])c2)N1c1nccs1 (stereo not given) | i
COc1cc2c(cc1NC(=S)NC(=O)c1cccs1)oc1ccccc12 | i
COc1ccc(-c2cc(=O)oc3cc(OCC(=O)c4cccc([N+](=O)[O-])c4)ccc23)cc1 | i
O=C(CC1(O)C(=O)N(Cc2ccc(Cl)cc2)c2ccccc21)c1cc2ccccc2oc1=O (stereo not given) | i
COc1cccc(C2CC(C(F)(F)F)n3nc(C(=O)O)cc3N2)c1 (stereo not given) | i
O=S(=O)(O)c1nc2ccccc2n1CCOc1ccc(Br)cc1 | i
CCCCC(=O)Nc1ccc(NC(=O)c2cc3ccccc3o2)cc1OC | 8.6%
COc1ccc(C2CC(=O)NC(SCC(=O)Nc3ccc(Oc4ccccc4)cc3)=C2C#N)cc1OC (stereo not given) | 12.7%
O=C(CSc1ncn[nH]1)c1cccs1 | i
Cc1cccc(NC(=O)c2ccccc2NC(=O)COc2ccc([N+](=O)[O-])cc2)c1C | i
Cc1ccc(C)c(Oc2coc3cc(OC(=O)c4cccs4)ccc3c2=O)c1 | 4.0%
CN1CCN(c2nc3c(c(=O)n(C)c(=O)n3C)n2Cc2ccc(Cl)c(Cl)c2)CC1 | 2.7%
Cc1cc(OCC(N)=O)c2c(C)cc(=O)oc2c1 | i
COc1cccc(OC)c1C(=O)NC(=S)Nc1ccc(Cc2ccncc2)cc1 | i
CNC(=O)C1=C(C)NC(=O)NC1c1c(F)cccc1Cl (stereo not given) | i
CCC(C)NC(=O)CSc1nc2ccccc2c(=O)n1CCCN1CCCCC1 (stereo not given) | i
O=S(=O)(Cc1ccc(Cl)cc1)NCC1CCCO1 (stereo not given) | i
Cc1occc1C(=O)NCc1ccccc1Br | i
CCn1c(CCNC(=O)c2cccs2)nnc1SCC(=O)c1ccc(OC)cc1 | i
O=C(CS(=O)(=O)Cc1ccccc1)N1CCC(Cc2ccccc2)CC1 | 3.3%
CCc1cccc(C)c1NC(=O)c1ccc(C)cc1 | 30.6%
CCc1c(C)n([O-])c2c([n+]1=O)CCCC2 | i
CC(NC(=O)c1sc2nc(-c3ccncc3)ccc2c1N)C12CC3CC(CC(C3)C1)C2 (stereo not given) | i
Cc1nc(N2CCC(C)CC2)nc(N(C)CCO)c1[N+](=O)[O-] | 7.4%
COc1ccc(C(=O)NC(=S)Nc2cc(C(F)(F)F)ccc2Cl)cc1 | i
COc1ccc(-c2nc3ccccc3s2)cc1NC(=O)c1cc(Br)cc(C)c1OC | i
CN(C)c1ccnc2sc(C(=O)c3ccccc3)c(N)c12 | i
COc1ccccc1NC(=O)c1ccc(OC(C)C(=O)O)cc1 (stereo not given) | i
O=C(NCc1ccc2c(c1)OCO2)c1cnn2c1NC(c1cccs1)CC2C(F)(F)F (stereo not given) | 0.13µg/mL*
Cc1c(OCC(=O)N2CCOCC2)ccc2c3c(c(=O)oc12)CCCCC3 | i
O=C(NC1CC2CCC1C2)c1ccccc1N(Cc1ccccc1)S(=O)(=O)c1ccccc1 (stereo not given) | 1.0%
CC(C)CNC(=S)NNC(=O)CC(C)O (stereo not given) | 1.4%
COc1ccc(NC(=O)CSc2nnc(C(C)Oc3ccccc3)n2C)cc1 (stereo not given) | i
COc1cc(OC)cc(C(=O)N2CCN(C3CCC(C)CC3)CC2)c1 (stereo not given) | i
Cc1ccc(C)c(OCC(=O)Nc2ccccc2NC(=O)COc2cc(C)ccc2C)c1 | i
Cc1ccc(N2C(=S)N(c3ccc(Cl)c(Cl)c3)C3CS(=O)(=O)CC32)cc1 (stereo not given) | i
COc1ccc(-c2cc(C(=O)N3CCCC3C(=O)O)c(C)o2)cc1OC (stereo not given) | i
CCCCN1C(=O)C2(C(C#N)=C(N)Oc3c2c(C)nn3-c2ccccc2)c2ccccc21 (stereo not given) | 14.3%
CCc1ccccc1NC(=O)c1ccccc1I | i
COc1ccc(S(=O)(=O)Nc2ccc(O)c3ccccc23)cc1 | 4.2%
O=C(Nc1cccnc1)c1ccc(COCC(F)(F)F)cc1 | i
Cc1ccc(C)c(S(=O)(=O)NCc2ccc(C(=O)N3CCN(C)CC3)cc2)c1 | i

More entries
mol | Mtb growth
O=C(CSc1cccs1)Nc1ccc2ccccc2c1 | u
COC(=O)c1ccc(NC(=O)c2ccc3c(c2)nnn3C)cc1 | 2.6%
Cc1coc2c1c(C)cc1oc(=O)c(Cc3ccccc3)c(C)c12 | 0.8%
COc1ccc(OCC#CCn2cnc3ccccc3c2=O)cc1 | i
O=C(CSc1nccc(=O)[nH]1)Nc1cccc(F)c1 | 26.4%
COC(=O)C1=CN(c2ccc(C)cc2)C=C(C(=O)OC)C1c1ccc(C)s1 | i
CCC(C)NC(=O)c1ccccc1NC(=O)CSCc1ccccc1Br (stereo not given) | i
CCOc1ccccc1N1CC(O)=C(c2nc3ccccc3s2)C1=N | 3.1%
COCc1nnc(NC(=O)CCCOc2ccc(Cl)cc2C)s1 | i
CC(C)(C)NC(=O)c1cc2cc([N+](=O)[O-])ccc2oc1=O | 1.48µg/mL*

Quoted from the listing, 6 compounds:
mol | Mtb growth
O=C(CSc1nccc(=O)[nH]1)Nc1cccc(F)c1 | 26.4%
COC(=O)C1=CN(c2ccc(C)cc2)C=C(C(=O)OC)C1c1ccc(C)s1 | i
CCC(C)NC(=O)c1ccccc1NC(=O)CSCc1ccccc1Br (stereo not given) | i
CCOc1ccccc1N1CC(O)=C(c2nc3ccccc3s2)C1=N | 3.1%
COCc1nnc(NC(=O)CCCOc2ccc(Cl)cc2C)s1 | i
CC(C)(C)NC(=O)c1cc2cc([N+](=O)[O-])ccc2oc1=O | 1.48µg/mL*

(list continues)
mol | Mtb growth
COC(=O)c1ccc(C)c(N(CCO)CCO)c1 | i
Cc1ccc(C(=O)NC(=S)Nc2cccc(Cl)c2Cl)cc1Br | i
O=C(NC1CCCCC1)c1ccc(COc2ccccc2Br)cc1 | i
Cc1ccccc1C(=O)Nc1ccc(OCC(=O)O)cc1 | i
O=C(Oc1ccc(Cl)cc1)c1ccc(Br)c(S(=O)(=O)N2CCOCC2)c1 | 15.4%
O=C(Nc1ccc(N2CCCCC2)cc1)c1cccc(OCc2ccccc2)c1 | i
Fc1ccc(CNCc2ccncc2)cc1 | 1.9%
CC(C)C(=O)c1cc2c(cc1N)OCCO2 | 5.4%
CNC(=O)c1[nH]cnc1C(=O)Nc1cccc(OC)c1 | u
CCOC(=O)C1CCCN(C2CC(=O)N(c3ccccc3)C2=O)C1 (stereo not given) | i

Four records drawn at random from those above, as already listed:
mol | Mtb growth
CCOC(=O)C1CCCN(C2CC(=O)N(c3ccccc3)C2=O)C1 (stereo not given) | i
Cc1ccc(C(=O)NC(=S)Nc2cccc(Cl)c2Cl)cc1Br | i
O=C(Nc1ccc(N2CCCCC2)cc1)c1cccc(OCc2ccccc2)c1 | i
Cc1ccccc1C(=O)Nc1ccc(OCC(=O)O)cc1 | i

Continued:
SMILES | Mtb growth
COc1ccc(Cl)cc1NC(=S)Nc1ccc(Cl)cn1 | i
COc1ccc(NCc2ccc3c(c2)OCO3)cc1Cl | 11.5%
CN(C)c1oc(-c2ccccc2Cl)nc1S(=O)(=O)c1ccccc1 | 6.4%
Cc1cccc(N(CC(=O)NCc2ccc(Cl)cc2Cl)S(C)(=O)=O)c1C | 2.2%
O=C(Cc1ccccc1)NCc1cccc(CNC(=O)Cc2ccccc2)c1 | i
CS(=O)(=O)N(CC(=O)N1CCOCC1)c1ccc2c(c1)OCO2 | 0.5%
O=C(CCSc1nc2ccccc2s1)N1CCOCC1 | i
COc1ccc2nc(SCC(=O)Nc3ccc(Cl)cc3Cl)[nH]c2c1 | i
CC(=O)c1ccc(COC(=O)C2c3ccccc3Oc3ccccc32)cc1 | 17.6%
Cc1ccc(-c2nc3ccccc3c(=O)o2)cc1 | 18.4%
CNS(=O)(=O)c1cc(C(C)(C)C)cc(C)c1C | i
O=C(NCC(F)(F)F)OCc1ccc(F)cc1 | i
CC(C)c1ccc(NC(=O)C2CCN(S(=O)(=O)c3ccccc3)CC2)cc1 | 6.4%
CCCCC(=O)Nc1ccc(N2CCN(C(=O)CC)CC2)cc1 | 2.2%
COc1ccc(C(NC(=O)C(c2ccccc2)c2ccccc2)NC(=O)C(c2ccccc2)c2ccccc2)cc1 | 7.4%
Cc1ccccc1C(=O)NCCCNC(=O)c1ccccc1C | i
COc1ccc(C(=O)Nc2ccccc2F)cc1S(=O)(=O)N1CCOCC1 | i
COc1cc(NC(=O)Cc2cccs2)c(OC)cc1Cl | 0.9%
O=C(NCCSc1nnnn1-c1ccccc1)c1ccco1 | 3.6%
CSc1ccc(CNc2nnnn2C)cc1 | i
COc1ccc(S(=O)(=O)N2Cc3ccccc3CC2C(=O)Nc2nccs2)cc1OC (stereo not given) | 10.8%
CCn1c(SCC(=O)NC2CCCCC2)nnc1-c1cccc(N)c1 | i
COc1ccc(CCCc2nnc(SCC(=O)Nc3nc(C)cs3)n2C)cc1 | i
CC(=O)Nc1ccc(C(=O)CSc2nc3ccccc3n2C)cc1 | i
CCOc1cc(C(=O)NCc2ccccc2)ccc1OC | i
COCCNC(=O)c1ccccc1-c1nc(-c2ccc(OC)c(OC)c2)no1 | i
CC(C)(C)N1C(=O)c2ccc(C(=O)Nc3ccc4c(c3)OCO4)cc2C1=O | 5.6%
O=C(CCSc1ccccc1)NCC1CCCO1 (stereo not given) | 1.9%
CN(C(=S)NC(=O)c1ccc(F)cc1)c1ccccc1 | i
CS(=O)(=O)N1CCCC(C(=O)Nc2ccc(C(N)=O)cc2)C1 (stereo not given) | i

Entries from the list above that have a cyano group (three):
SMILES | Mtb growth
N#Cc1cccc(NC(=S)NC(=O)c2ccccc2Br)c1 | i
COc1ccc(C2CC(=O)NC(SCC(=O)Nc3ccc(Oc4ccccc4)cc3)=C2C#N)cc1OC (stereo not given) | 12.7%
CCCCN1C(=O)C2(C(C#N)=C(N)Oc3c2c(C)nn3-c2ccccc2)c2ccccc21 (stereo not given) | 14.3%

(next part)
SMILES | Mtb growth
COc1ccccc1CC(=O)N(Cc1ccccc1)C(C)(C)C | i
CCOC(=O)c1cnc2nc(C(F)(F)F)nn2c1N | 1.5%
Cc1ccc(S(=O)(=O)N2CCn3c(nc4ccccc43)C2)cc1 | i
O=[N+]([O-])c1cccc(NC(=S)Nc2nn(Cc3ccc(Cl)cc3Cl)cc2Cl)c1 | 27.7%
CN(CC(=O)Nc1ccccc1C(F)(F)F)S(=O)(=O)c1ccc(Cl)cc1 | i
COc1ccc(S(=O)(=O)Nc2nccc(C)n2)cc1 | i
COc1ccccc1-c1coc2cc(OCc3c(F)c(F)c(F)c(F)c3F)ccc2c1=O | i
CCOC(=O)c1ccc(NC(=S)N2CCN(C/C=C/c3ccccc3)CC2)cc1 | i
O=C(c1csc2ccccc12)N1CCN(C(=O)C2CCCO2)CC1 (stereo not given) | i
O=C(Nc1ccc(Cl)cn1)Nc1ccc(F)cc1F | i
CCN(CC)S(=O)(=O)c1cc(C(=O)Nc2ccc(Br)cc2)ccc1Cl | i
COc1ccc(CC(=O)N2CCN(c3ccc(F)cc3)CC2)cc1 | 4.2%
COc1ccc(Nc2nnc(-c3ccc(O)cc3)c3ccccc23)cc1 | i
O=C1c2cccc3cc([N+](=O)[O-])cc(c23)C(=O)N1CCO | i
CN1CCN(C(=O)CN(Cc2ccc(Cl)c(Cl)c2)S(=O)(=O)c2ccc(Cl)cc2)CC1 | i
Cc1c(Br)ccc(NC=O)c1C | i
COc1cc(OC)c(C(=O)Nc2ccccc2-c2ccccc2)cc1OC | 24.4%
C=CCN(CC=C)C(=O)CCCOc1ccccc1 | i
Cc1cc(C)cc(C(=O)Nc2ccc3c(c2)OCCO3)c1 | i
Cc1ccc(N/C(N)=N/c2nc(CSc3nnc(C)s3)cc(=O)[nH]2)c(C)c1 | i
O=c1oc2cc(OCc3cc4c(cc3Cl)OCO4)ccc2c2ccccc12 | 1.9%
Cc1cc2nn(-c3ccc(Cl)cc3)nc2cc1NC(=S)NC(=O)c1cccnc1 | i
O=C1CNC(=O)N1CC(O)Cn1c2ccccc2c2ccccc21 (stereo not given) | i
CC(C)(C)C(=O)NNC(=O)COc1ccc2ccccc2c1Br | i
Cc1ccc([N+](=O)[O-])cc1Nc1nc(=O)c2cccnc2s1 | i
Cc1ccn(C(=O)CNc2cccc(Cl)c2C)n1 | 0.9%
COc1ccccc1NC(=O)CN1CCN(C)CC1 | i
S=c1[nH]nc(C23CC4CC(CC(C4)C2)C3)n1-c1ccccc1 | i
CN(C)CCC(=O)c1ccc(O)cc1 | u
COc1ccc(NC2CC(=O)N(c3cccc(C)c3)C2=O)cc1 (stereo not given) | i
Cc1ccc(N/C(N)=N/c2nc3c(c(=O)[nH]2)CCCC3)c(C)c1 | 9.0%
COc1ccc(CNC(=O)C2CCCCC2C(=O)O)cc1 (stereo not given) | i
CCn1c(=S)[nH]c2sc3c(c2c1=O)CCC(C)C3 (stereo not given) | 25.2%
CCOC(=O)COc1ccc(S(=O)(=O)Nc2ccc(C(=O)OCC)cc2)cc1 | 4.2%
CCOCC(=O)Nc1cc(OC)c(Cl)cc1OC | 35.4%
CCCC(=O)Nc1ccc(Cl)c(NC(=O)c2cccc(OCc3ccccc3)c2)c1 | i
C=CCc1cc(OC)ccc1OCCNCCO | i
Cc1cc(C)nc(SCC(=O)N2c3ccccc3Sc3ccccc32)n1 | 2.1%
